# Sa RN4220 lethal: S. aureus RN4220 growth inhibition; 0.33% of 330,000 active; inhibition, % (concentration not given with the values); OD600, 16 h;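 active = z-score of -3 or lower and OD600 up to 0.18 on both plates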;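 also: plate controls were untreated cells for no effect and reference antibiotic for full effect; stock transfer was 100 nL into about 80 µL; one replicate is shown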
# Mtb hypoxia rep: Mtb hypoxia fluorescent reporter inhibition. M. tuberculosis hypoxia-regulated fluorescent reporter, fluorescence. fluorescence inhibition, % (concentration not given with the values). 0.1% of 300,000 active. AID 1159583;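 active = 35 to 45% if threefold the growth effect, above 45% if 1.5-fold the growth effect; inactive = the rest, general growth blockers included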;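 also: wells of about 50 µL received 100 nL stock; 0% = vehicle wells and 100% = reference inhibitor wells; whole bacteria with a GFP reporter of the hypoxia response; strong numbers were not always called active; many hits fall short of the cut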
# BJeLR viability: BJeLR cell viability loss; BJeLR (HRASV12) viability, CellTiter-Glo ATP luminescence, 48 h; reference of the scale not given here; inhibition, % (test concentration not listed); 0.17% of 300,000 active; AID 1554;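 active = replicate mean above 50%; inconclusive = above 50% but judged a plate artefact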;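 also: 50 nL library stock added to about 25 µL; numbers are from one replicate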
# PrP UTR inh: inhibition of PrP 5' UTR reporter expression; cell-based PrP 5' UTR mRNA reporter, plate reader; inhibition, % (no concentration beside the values); 0.35% of 340,000 active; AID 488862;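 active = every replicate at 50% or more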;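 also: 0 = median of the neutral control wells; tested in H4 reporter cells; numbers are from one replicate; inactives centre near -14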
# Bead autofluor: flagged as autofluorescent in microsphere protease counterscreen | 3.1% of 360,000 active | compound autofluorescence counterscreen, microsphere flow cytometry; active compounds read high | fluorescence intensity (no concentration beside the values);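 active = at least 3 SD above the mean of all compounds, about 16000 in these data; inconclusive = too few beads counted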;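 also: 100 nL of 1 mM stock went into each well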
# Sa ugtP lethal: growth inhibition of S. aureus ugtP deletion strain. 0.54% of 330,000 active. growth inhibition, % (concentration not given with the values). S. aureus RN4220 ugtP deletion, OD600 growth, 16 h; some inactives read as strong as hits;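 active = z-score under -3 and OD600 up to 0.15 on both plates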;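 also: plate controls were untreated wells for no effect and antibiotic for full effect; wells of about 80 µL received 100 nL stock; the first replicate is given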
# Mtb hypoxia rep growth: further read-out of Mtb hypoxia rep, marked with its call; growth inhibition, %; measured here: M. tuberculosis growth (absorbance);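 0% = vehicle and 100% = reference antibiotic; read after six days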
# * marks the source's active call; other numbers are inactive results; ? = inconclusive; · = no result given.
SMILES,Sa RN4220 lethal,Mtb hypoxia rep,Mtb hypoxia rep growth,BJeLR viability,PrP UTR inh,Bead autofluor,Sa ugtP lethal
CC(=O)Nc1ccc(NC(=O)c2ccccc2Nc2ccccc2)cc1,3.7,-5.7,1.1,5.9,-23.2,3560,-0.8
CCc1ccc(OCCCC(=O)Nc2nccs2)cc1,1.7,0.3,1.4,16.1,-6.3,2383,-3.5
CCc1ccccc1NC(=O)C(Cc1cccc(OC)c1OC)c1nn[nH]n1 (stereo not given),3.7,2.6,6.7,-9.6,-0.8,15651,9.6
COc1ccc(Br)cc1/C=N/NC(=O)C[n+]1ccccc1,·,·,·,-7.0,-13.6,3732,·
O=C(Nc1ccccc1)Nc1ccc(C(F)(F)F)cn1,3.1,-0.6,5.4,-3.6,-27.5,4292,-17.0
CC(=O)Nc1ccc(S(=O)(=O)N(CCO)Cc2ccccc2)cc1,5.1,9.5,10.3,-8.1,-18.9,9647,-0.9
CN1C(=O)C(=Cc2ccc(N3CCCCC3)o2)C(=O)N(C)C1=S,·,·,·,2.6,54.3*,9734,·
CSCCC(=O)N1CC[C@@H](N2CCN(c3ccccc3F)CC2)[C@H](O)C1,3.7,-5.1,5.0,5.0,-23.1,4211,-1.2
CC(C)(C)NS(=O)(=O)c1ccc(NS(C)(=O)=O)cc1,0.5,16.5,-0.5,4.4,-7.0,16636*,9.8
O=S(=O)(c1ccc(F)c(F)c1)N1CCCc2ccccc21,6.3,-6.2,3.7,5.2,-6.0,3439,-1.4
Cc1cc(C)n(CCC(=O)NN=Cc2ccccc2O)n1,6.9,-0.8,-5.3,·,·,·,1.2
COc1ccc(Br)cc1C=NNC(=O)c1ccco1,2.0,6.4,-4.9,·,·,·,5.5
Cc1ccccc1NC(=O)CNC(=O)Cc1cccc2ccccc12,-0.4,11.3,2.9,6.8,-8.2,6523,1.7
CC(C)Cn1c(=S)[nH]c2cc(C(=O)O)ccc2c1=O,0.4,-3.1,7.1,7.7,-21.1,4798,4.8
O=C(CCc1nc2ccccc2c(=O)[nH]1)Nc1nnc(SCc2ccc(Cl)cc2)s1,4.3,1.4,0.0,-2.1,-4.5,6201,9.5
CCOC(=O)C1=C(C)N(C[C@@H]2CC[C@@H](Cc3ccc(-c4ccccc4)cc3)O2)C(=O)NC1c1cccc2ccccc12 (stereo not given in full),4.9,3.0,2.0,·,-7.8,3123,27.1
O=C(NCc1ccccn1)C(=O)NCC1OCCCN1S(=O)(=O)c1ccc(F)cc1 (stereo not given),4.0,11.4,0.0,-7.8,-7.0,4252,17.2
COc1ccc(NC(=O)C(C)N2C(=O)c3ccccc3C2=O)c(OC)c1 (stereo not given),3.3,0.0,6.4,-9.6,·,3562,6.5
O=C(NCCC1CCCCN1S(=O)(=O)c1cccs1)C(=O)Nc1ccccc1 (stereo not given),1.5,9.2,0.1,-11.4,-24.0,?,10.1
CCOC(=O)Cc1csc(NC(=O)CSc2nnc(C(C)C)n2C)n1,2.6,·,·,2.3,-24.8,3962,3.4
Cc1cccc(N=Cc2c(O)ccc3oc4c(c23)CCCC4)n1,5.0,4.3,15.2,·,·,·,13.3
Cc1ccccc1OCC(=O)NNC(=O)c1ccc2c(=O)n3c(nc2c1)CCC3,-0.2,-6.1,-2.5,-1.0,-1.7,?,5.2
COC(=O)CN1C(=O)[C@H]2[C@@H](c3ccc(C)o3)N3C(=O)CN(CCO)C(=O)[C@@]3(Cc3ccccc3)[C@H]2C1=O,·,·,·,-7.6,-15.2,3845,·
Cc1cccc(NS(=O)(=O)c2ccc(-n3cccn3)cc2)c1C,9.0,1.4,-5.1,-0.7,-26.8,6103,0.2
CC(Sc1nc2ccccc2[nH]1)C(=O)Nc1ccccc1F (stereo not given),7.2,18.2,15.1,-2.2,-9.5,4341,2.8
O=C(ON=C1CCN(S(=O)(=O)c2ccccc2)CC1)c1ccc(F)cc1,1.5,18.0,15.8,-3.7,-25.1,4309,28.1
O=C(CN1CCCCC1)Nc1ccccc1Cl,-0.3,-4.5,19.0,-5.8,-14.3,4347,-16.4
O=C(c1ccc2c(c1)OCO2)N1CCC2(CC1)OCCO2,1.1,5.7,10.2,-10.5,-7.0,15865,3.8
CCCN1C(=O)C2(C(C(=O)c3ccc(C)o3)=C(O)C(=O)N2CCCN2CCOCC2)c2ccccc21 (stereo not given),1.1,9.1,-8.7,-3.0,·,8172,1.2
CCOC(=O)/C(=N\Nc1cc(Cl)ccc1Cl)N1CCN(C)CC1,·,·,·,-5.5,-12.1,9996,·
CCCCSC(=S)N(C)C1CCS(=O)(=O)C1 (stereo not given),5.3,8.4,9.4,-0.9,-16.4,2852,5.2
CCn1cnc2sc(C(=O)Nc3ccccc3OC)c(C)c2c1=O,3.4,5.1,1.6,2.3,-13.7,3643,6.2
O=C1CCC(C(=O)NCCN2C(=O)S/C(=C\c3cccnc3)C2=O)=NN1,7.1,13.8,6.2,-14.4,-9.3,4478,2.9
COc1cc(Nc2nc(SCC#N)nc3ccccc23)cc(OC)c1OC,2.0,4.0,0.3,-4.6,·,9872,10.1
Cc1ccc2nc(NC(=O)CSCC(=O)Nc3cc(C)on3)sc2c1,6.0,11.5,2.9,·,·,·,3.4
CC(=O)c1ccc(OCc2cc(C(=O)N3CCN(c4ccccc4)CC3C)no2)cc1 (stereo not given),-0.6,14.2,7.6,-4.5,-52.7,4751,2.2

# Arranged by number of heavy atoms (smallest number first): some entries from above
SMILES,Sa RN4220 lethal,Mtb hypoxia rep,Mtb hypoxia rep growth,BJeLR viability,PrP UTR inh,Bead autofluor,Sa ugtP lethal
O=C(c1ccc2c(c1)OCO2)N1CCC2(CC1)OCCO2,1.1,5.7,10.2,-10.5,-7.0,15865,3.8
CCn1cnc2sc(C(=O)Nc3ccccc3OC)c(C)c2c1=O,3.4,5.1,1.6,2.3,-13.7,3643,6.2
O=C(ON=C1CCN(S(=O)(=O)c2ccccc2)CC1)c1ccc(F)cc1,1.5,18.0,15.8,-3.7,-25.1,4309,28.1
COc1cc(Nc2nc(SCC#N)nc3ccccc23)cc(OC)c1OC,2.0,4.0,0.3,-4.6,·,9872,10.1
CC(=O)c1ccc(OCc2cc(C(=O)N3CCN(c4ccccc4)CC3C)no2)cc1 (stereo not given),-0.6,14.2,7.6,-4.5,-52.7,4751,2.2

# (listing goes on)
SMILES,Sa RN4220 lethal,Mtb hypoxia rep,Mtb hypoxia rep growth,BJeLR viability,PrP UTR inh,Bead autofluor,Sa ugtP lethal
OCc1nc2ccccc2n1CCc1ccccc1,7.0,23.9,2.3,-4.6,-14.5,·,2.7
O=C1C(Cc2ccccc2)Nc2ncnc(N3CCCCC3)c2N1Cc1ccc(Cl)cc1 (stereo not given),·,·,·,-7.8,-10.2,3830,·
CCCCOc1ncnc2c1[nH]c1ccc(OCC)cc12,8.2,0.0,-4.0,-8.6,-18.9,18958*,-4.5
CC1CCN(c2ccc(C(=O)O)cc2N)CC1,0.6,·,·,-8.8,-29.7,4800,5.5
CC(c1ccccc1)N(CCC(c1ccccc1)C1CCOC(C)(C)C1)C(=O)c1ccco1 (stereo not given),-1.4,5.6,-5.7,16.9,-8.7,2593,33.8
Cc1ccc(S(=O)(=O)NCc2ccccn2)c(C)c1C,3.8,3.4,4.5,-16.2,-20.7,4203,7.0
Cc1ccc(NC(=O)CCN2C(=O)c3cccc([N+](=O)[O-])c3C2=O)c(Br)c1,-2.1,5.7,0.8,-1.3,-14.9,4016,8.1
CC1CN(/C=C/C(=O)C(F)(F)F)CC(C)O1 (stereo not given),2.9,-4.4,2.6,-5.1,-21.1,4116,4.8
C=CCNC(=S)NC(=O)c1oc2ccccc2c1C,6.0,6.5,-3.0,3.6,-34.7,4474,-8.3
CCOc1ccccc1-n1nnnc1SCC(=O)OC,4.8,10.8,2.0,-2.8,-24.5,4415,3.6
CCOC(=O)/C=C1\SCC(=O)N1CC(=O)NC1CCCCC1,-0.9,4.4,-1.1,6.5,-1.7,9115,1.5
NC(=S)N/N=C1\CC(n2nnnc2-c2ccccc2)C2COC1O2 (stereo not given),·,·,·,7.3,-24.3,6576,·
CCc1cc2c(=O)c(-c3nc4ccccc4n3C)c(C)oc2cc1OC(C)=O,3.0,9.6,0.3,5.0,-12.4,5761,2.0
Cc1c(C=NNC(=O)c2cc(C(C)(C)C)[nH]n2)c2ccccc2n1C,-0.3,11.2,-1.0,·,·,·,-0.8
Cc1cc(N2CC(C(=O)NCc3cccnc3)CC2=O)ccc1C(C)C (stereo not given),1.6,-1.9,2.9,3.5,-13.9,5061,3.9
Fc1ccccc1N1CCN(c2nnnn2-c2ccccc2)CC1,6.2,-2.6,-6.8,2.7,6.0,4168,4.9
O=C1CC2(CCN(C(=O)COc3ccc(Cl)cc3)CC2)Oc2ccccc21,-6.1,7.3,5.4,9.8,-3.7,?,-2.9
COc1ccc(CC(=O)NNC(=O)CN(C)S(=O)(=O)c2ccc(Cl)cc2)cc1OC,5.8,9.5,-2.6,·,8.6,3011,10.9
CCCn1nc(C(=O)NCc2ccc3c(c2)OCO3)c2ccccc2c1=O,4.5,7.4,-2.5,1.3,43.3,4518,10.6
CCN1CCN(c2nc3c(C)cccn3c(=O)c2/C=C(\C#N)C(=O)NCCCOC)CC1,-0.9,5.9,1.8,13.5,-7.2,4081,-0.2
C=CCn1c(SCC(=O)c2cc(C)n(Cc3cccs3)c2C)nnc1-c1ccncc1,0.5,·,·,3.6,-1.1,3140,0.5
Cc1ccccc1NC(=O)CSc1nnc(CNC(=O)c2ccco2)n1C,0.7,-7.0,4.9,-5.1,-12.6,6374,0.1
Cc1ccc(S(=O)(=O)NCC(C)n2nc(C)nc2C)cc1 (stereo not given),3.5,2.3,-1.8,-7.4,-21.0,3729,3.3
COCc1cc(C)[nH]c(=O)c1C(=O)NC12CC3CC(CC(C3)C1)C2,-1.4,7.2,8.0,7.0,2.6,4083,0.0

# In a second layout: 2 of the compounds above
SMILES | Sa RN4220 lethal | Mtb hypoxia rep | Mtb hypoxia rep growth | BJeLR viability | PrP UTR inh | Bead autofluor | Sa ugtP lethal
Cc1cc(N2CC(C(=O)NCc3cccnc3)CC2=O)ccc1C(C)C (stereo not given) | 1.6 | -1.9 | 2.9 | 3.5 | -13.9 | 5061 | 3.9
Fc1ccccc1N1CCN(c2nnnn2-c2ccccc2)CC1 | 6.2 | -2.6 | -6.8 | 2.7 | 6.0 | 4168 | 4.9

# New compounds follow.
SMILES,Sa RN4220 lethal,Mtb hypoxia rep,Mtb hypoxia rep growth,BJeLR viability,PrP UTR inh,Bead autofluor,Sa ugtP lethal
Cc1ccc(N2CC(C(=O)NCc3ccc4c(c3)OCO4)CC2=O)cc1C (stereo not given),-2.7,0.1,-2.7,9.5,-7.0,22630*,0.4
CCN(CC)c1ccc(C(=S)N2CCN(c3ccccc3)CC2)cc1,6.4,4.1,4.6,-1.0,-24.9,3816,-16.3
CN(C(=O)c1cccc(NC(=O)Cc2cccc(NC(=O)C3CCCN(C(=O)C4CC4)C3)c2)c1)C1CCC1 (stereo not given),3.5,1.4,6.1,·,-21.0,3274,1.6
C[C@@H]1CN(C(=O)c2nc3ccc(Cl)cn3c2CN2CCc3sccc3C2)C[C@H](C)O1,1.4,5.6,0.5,-8.3,-8.7,2525,0.2
CC(=O)c1ccc(N2CCN(C(=S)Nc3ccccc3F)CC2)cc1,5.4,13.5,5.6,-6.7,-17.3,2513,3.9
CCN1CCN(CCNC(=O)c2ccc(CS(=O)c3ccc(Cl)cc3)o2)CC1 (stereo not given),-0.1,4.4,9.0,-8.0,-4.2,5054,2.1
Cc1cc(C)cc(NC(=O)C(OC(=O)c2cccs2)c2ccccc2)c1 (stereo not given),0.2,1.8,-0.8,9.1,-1.5,6633,7.9
CCC(=O)c1ccc(OCC(O)CN2C(=O)NC(C)(C)C2=O)cc1 (stereo not given),3.2,·,·,-2.3,-16.4,5841,5.7
Cc1ccc(NS(=O)(=O)c2ccc(NC(=O)C3CCCO3)cc2)cc1 (stereo not given),·,·,·,-5.6,-30.2,3758,·
Cn1c2c(c(=O)n(C)c1=O)C(NS(=O)(=O)c1ccccc1)(C(F)(F)F)C(=O)N2 (stereo not given),3.0,9.0,5.1,0.4,-12.6,2292,-4.9
Cc1nc(SCC(=O)NC(C)c2ccccc2)c2oc3ccccc3c2n1 (stereo not given),13.7,1.9,4.2,1.8,-3.7,19999*,-5.0
CCOC(=O)c1cnn(-c2ccccc2)c1N,0.0,7.7,-0.1,-10.6,-31.9,6420,-1.8
CCCCCC(=O)N1CC2(CC(c3cccc(NC(=O)c4ccccc4)c3)=NO2)C[C@@H]1C(N)=O (stereo not given in full),·,·,·,-9.4,-5.3,3723,·
Cc1nc(-c2ccc(C(=O)Nc3ccccc3F)cc2)cs1,3.8,-13.8,-5.0,41.5,30.1,2600,2.6

# Screens as filed in PubChem BioAssay.
